GLA inh pH 4.5: inhibitors of human alpha-galactosidase A at pH 4.5; activity change, negative = inhibition, % at 105 µM; P06280; AID 1467; purified enzyme, 4-MU-alpha-Gal fluorescence, pH 4.5; 230,000 tested, under 10 active; inconclusive = small, poorly fitted or top-dose-only inhibition, or a rising curve; inactive = flat fitted curve, though single readings scatter; no compound was filed as active;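 further: 0% = full activity with enzyme and -100% = basal without enzyme; dose as in the result columns while the protocol names 77 µM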
Rango-impB inh: inhibitors of Rango-importin beta complex formation; Q14974; Rango CFP/YFP FRET sensor + importin beta, 45 min; Potency, µM (top dose mostly 92.2 µM), without a hit: top-dose inhibition of complex formation; 340,000 compounds, 0.031% hits; active = rising FRET ratio curve, often small or poorly fitted; inconclusive = mostly compound fluorescence or quenching in the first reads; inactive = flat curves in all reads;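 further: potency means the concentration at half of the fitted maximal effect; 0% = DMSO wells and 100% = buffer wells lacking importin beta; nearly all actives have a fitted effect of over 15% in size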
Target sequence (Q14974 whole entry, looked up): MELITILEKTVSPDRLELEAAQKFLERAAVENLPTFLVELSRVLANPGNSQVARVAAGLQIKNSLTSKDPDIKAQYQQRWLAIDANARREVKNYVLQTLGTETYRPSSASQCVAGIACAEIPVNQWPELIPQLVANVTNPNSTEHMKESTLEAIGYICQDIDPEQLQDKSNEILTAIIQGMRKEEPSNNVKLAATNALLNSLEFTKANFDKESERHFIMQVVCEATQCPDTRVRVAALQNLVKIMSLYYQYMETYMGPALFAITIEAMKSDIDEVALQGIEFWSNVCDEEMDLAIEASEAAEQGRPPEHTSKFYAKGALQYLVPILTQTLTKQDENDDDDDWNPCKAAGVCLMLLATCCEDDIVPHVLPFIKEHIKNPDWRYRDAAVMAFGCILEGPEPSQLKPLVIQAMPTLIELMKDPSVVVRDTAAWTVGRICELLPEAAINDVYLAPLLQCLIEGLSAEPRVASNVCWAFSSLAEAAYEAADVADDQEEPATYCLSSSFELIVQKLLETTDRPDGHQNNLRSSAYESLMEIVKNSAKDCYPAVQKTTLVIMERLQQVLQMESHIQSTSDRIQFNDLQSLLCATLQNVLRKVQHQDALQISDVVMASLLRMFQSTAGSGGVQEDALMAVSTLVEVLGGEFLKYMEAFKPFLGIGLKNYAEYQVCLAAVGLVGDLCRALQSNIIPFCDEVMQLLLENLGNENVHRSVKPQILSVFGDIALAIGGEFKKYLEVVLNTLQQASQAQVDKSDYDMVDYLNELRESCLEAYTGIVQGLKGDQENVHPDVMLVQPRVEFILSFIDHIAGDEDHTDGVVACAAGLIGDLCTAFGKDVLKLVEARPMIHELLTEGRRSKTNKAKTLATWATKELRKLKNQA
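Inhibition scored from the CFP 486 nm/YFP 530 nm FRET ratio 45 min after adding 0.125 microM importin beta to 50 nM Rango biosensor preincubated 5 min with compound (room temperature, PBS with DTT, Tween-20, BSA). No-importin wells as positive control.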
Rango release inh: inhibitors of RanGTP-induced Rango-importin beta complex dissociation | Potency, µM (series often up to 46.1 µM), for the others: at the top dose activity change, negative = inhibition | O95149+P62826 | Biochemical FRET Rango-importin beta, RanGTP-induced dissociation | AID 540253 | 340,000 compounds, 0.071% hits; active means falling FRET ratio curve, often poorly fitted, with flat reads before Ran was added; inconclusive means other falling curves, or compound fluorescence or quenching; inactive means flat or rising ratio curve;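 further: potency means the concentration at half of the fitted maximal effect; % of control where 0% means no effect; nearly all actives have a fitted effect of over 45% in size; -100% = wells without RanGTP and RCC1; the record marks most hits as doubtful in a second field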
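Recombinant Rango FRET biosensor (EYFP–snurportin 1 IBB–cerulean CFP10) at 0.1 uM premixed with 0.25 uM importin beta in PBS, 1 mM DTT, 0.02% Tween-20, 0.1% BSA. Compound added 5 min; RanGTP-RCC1 (0.6 uM Ran, 2 mM GTP, 0.2 uM RCC1) then triggers release, read at 45 min.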
miR-21 reporter: raises the signal of a miR-21 reporter; HeLa miR-21 FLuc reporter, luciferase, 48 h; 340,000 tested, under 10 active; AID 2288; Potency, µM (titrated, usually from 38.3 µM), for the others: at the highest dose reporter change, positive = more light; active = well fitted rising curve with a large enough effect; inconclusive = small, poorly fitted or top-dose-only effect; inactive = no such curve, though single readings can be large or run the other way;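 further: % of control where 0% means no effect; miR-21 action dims this reporter so a rising signal means less miR-21 action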
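Using DMEM plus 10% FBS, HeLa miR-21-FLuc cells are incubated with test compounds (final up to about 40uM) for 48 hours; firefly luciferase signal is then imaged following reagent-mediated lysis.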
* hit, by the source's call; ? = inconclusive; · = not tested or not shown; & = joins results of further samples. A portion of the library (hit frequency here may not be typical).

SMILES | GLA inh pH 4.5 | Rango-impB inh | Rango release inh | miR-21 reporter
CCCCNS(=O)(=O)c1ccc(NC(=O)C2c3ccccc3Oc3ccccc32)cc1 | 7 | -2.2% | -10% | -6%
Fc1ccc(-c2nnsc2Sc2ccccn2)cc1 | -1 | -3.1% | 1% | -13%
COc1cc(C)nc(NC(=O)NC(=O)c2ccc(C(F)(F)F)cc2)n1 | · | 2.5% | 4% | 0%
Clc1cccc2sc(N3CCCC3)nc12 | 0 | -0.8% | 3% | -40%
Nc1nnc(SCC(=O)Nc2cccc(Cl)c2)s1 | · | 1.9% | -5% | ·
CCOC(=O)/C(C#N)=N/Nc1ccccc1OC | -1 | -1.8% | -1% | -13%
COc1ccc(C(=O)NCC(=O)OCc2ccc([N+](=O)[O-])cc2)cc1 | -5 | -1.2% | 31% | 3%
COc1ccc(NC(=O)CN(C)S(=O)(=O)c2ccc3c(c2)CCC(=O)N3)c(OC)c1 | -1 | -3.1% | -6% | 3%&-4%
N[C@@H](Cc1cc(I)c(O)c(I)c1)C(=O)O | 6 | -0.9% | -4% | -5%
CC(=O)Nc1ccc(S(=O)(=O)N(C)CC(=O)OCC(=O)Nc2ccc3c(c2)OCO3)cc1 | -6 | 4.6% | -1% | -1%
COC(=O)c1ccc(Oc2ccc3nncn3n2)cc1 | 0 | -0.6% | 14% | -7%
Cc1nc2ccccc2c(=O)n1-c1cccc(NC(=O)c2cccs2)c1 | · | ? | 7% | ·
Cc1cc2c(cc1S(=O)(=O)CCC(=O)NC1CCC(C)CC1)OCC(=O)N2 (configuration not stated) | · | -1.6% | 2% | 0%&-2%
Cc1ccc(/C=C(/NC(=O)c2ccccc2)C(=O)NCCc2c[nH]c3ccccc23)o1 | -14 | 0.4% | -20% | 1%
Cc1c(C)n(C(=O)CSc2nccn2C)c2ccccc12 | 8 | -0.6% | -17% | -2%
CN(C(=O)CSc1nc2ccc(Cl)cc2[nH]1)C1CCS(=O)(=O)C1 (configuration not stated) | · | 1.9% | 50% | ·
C/C(=N\N=C(/N)SC1CC(=O)N(c2ccc(Cl)c(Cl)c2)C1=O)c1cccs1 (configuration not stated) | -1 | -0.6% | 12% | -1%
O=C1c2ccccc2S(=O)(=O)N1CCS(=O)(=O)c1ccc(F)cc1 | · | 2.4% | 2% | -4%
COCCCN(C(=S)Nc1ccc(C)cc1Cl)C(C)c1ccncc1 (configuration not stated) | 7 | -0.5% | 18% | -4%
CSC1=NCCN1C(=O)c1ccc(Br)o1 | 5 | -4.7% | 32% | -14%
O=C(Cn1[nH]c(=O)c2ccccc2c1=O)OCC(=O)N1CCCc2ccccc21 | 5 | -3.7% | -10% | -1%
C(=N\N1CCN(C(c2ccccc2)c2ccccc2)CC1)/c1ccc2c(c1)OCO2 | 5 | -1.3% | 12% | 0%
CCC(=O)Nc1cc(C(C)C)c(O)cc1C | 9 | -9.4% | -3% | -2%
O=C(Cn1ncc(Cl)c(Cl)c1=O)NCC1CCCCC1 | -7 | -10% | -8% | ?
CC(=O)c1cccc(N=C2NC(=O)CS2)c1 | -6 | -3.4% | -4% | -12%
CCOC(=O)C1=C(N)OC2=C(C(=O)CC(C)C2)C1c1cccnc1 (configuration not stated) | 1 | ? | -5% | -7%
Nc1c(Cl)cc(C2=NCCn3nc4ccccc4c32)cc1Cl | · | 2.7% | 1% | ·
O=C(Nc1c(C(=O)O)[nH]c2ccccc12)NC1CCCCC1 | -19 | -0.7% | -9% | 1%
Nc1cc(CN2C(=O)c3ccccc3C2=O)cc(Cl)c1O | -7 | 4.1% | -12% | 3%
O=c1c2c3c(sc2ncn1Cc1ccc(F)cc1)CCC3 | 0 | -3.3% | -18% | -10%
O=C(NNC(=O)c1ccccc1O)c1ccc(S(=O)(=O)Nc2ccccc2)cc1 | · | 0.1% | -6% | ·
COc1ccc(OC)c(C(c2nnnn2CCc2ccccc2)N2CCN(c3ccccc3)CC2)c1 (configuration not stated) | -1 | -0.1% | -14% | 10%
CCc1ccc(NC(=O)[C@H](C)NC(=O)C2CCN(C(=O)[C@@H](NC(=O)OC(C)(C)C)C(C)C)CC2)cc1 | · | 0.4% | -17% | 2%
O=C(OCC(=O)N1CCC(c2ccccc2)=N1)c1ccc(Cl)s1 | · | ? | -4% | ·
Cc1ccc(C(=O)Nn2cnnc2)c(Cl)c1 | · | -0.4% | -8% | 0%
CC(Sc1ncccn1)C(=O)N1CCc2ccccc21 (configuration not stated) | · | 1.5% | 18% | ·
Clc1ccc(COc2cccc(CNCc3ccncc3)c2)cc1 | -8 | -1.9% | -4% | 14%
CC(C)(C)c1[nH]nc2c1C(c1ccc(OC(=O)c3ccco3)cc1)C(C#N)=C(N)O2 (configuration not stated) | -2 | -3.9% | -5% | 6%
CC(=O)Nc1ccc(N/C=C(\C=O)c2nc3ccccc3o2)cc1 | 9 | ? | -18% | ?
Cn1cnnc1SCC(=O)c1c(N)n(Cc2ccccc2)c(=O)n(C)c1=O | 5 | -2.0% | 1% | 0%
Cc1ccc(-c2nc(NCc3ccco3)n(C(=O)c3ccco3)n2)cc1 | -21 | -0.4% | 5% | -10%
CC(C)(C)NC(=O)C(=O)NCc1ccccn1 | -1 | -2.1% | -9% | -23%
C=CCSc1nc(=O)n2ccccc2n1 | -11 | -3.9% | 0% | -9%
COc1ccc(CNC[C@H]2O[C@@H](n3cnc4c(N)ncnc43)[C@H](O)[C@@H]2O)cc1OC | · | 0.0% | 1% | ·
CCn1c(SCC(=O)N2CCC(C)CC2)nc2c1c(=O)n(C)c(=O)n2C | · | 0.0% | 8% | -2%

18 structures out of the list, arranged by SMILES length, ascending:
SMILES | GLA inh pH 4.5 | Rango-impB inh | Rango release inh | miR-21 reporter
C=CCSc1nc(=O)n2ccccc2n1 | -11 | -3.9% | 0% | -9%
Cc1ccc(C(=O)Nn2cnnc2)c(Cl)c1 | · | -0.4% | -8% | 0%
CC(C)(C)NC(=O)C(=O)NCc1ccccn1 | -1 | -2.1% | -9% | -23%
CC(Sc1ncccn1)C(=O)N1CCc2ccccc21 (configuration not stated) | · | 1.5% | 18% | ·
O=C(Cn1ncc(Cl)c(Cl)c1=O)NCC1CCCCC1 | -7 | -10% | -8% | ?
Clc1ccc(COc2cccc(CNCc3ccncc3)c2)cc1 | -8 | -1.9% | -4% | 14%
Nc1cc(CN2C(=O)c3ccccc3C2=O)cc(Cl)c1O | -7 | 4.1% | -12% | 3%
Nc1c(Cl)cc(C2=NCCn3nc4ccccc4c32)cc1Cl | · | 2.7% | 1% | ·
O=C(Nc1c(C(=O)O)[nH]c2ccccc12)NC1CCCCC1 | -19 | -0.7% | -9% | 1%
O=C(OCC(=O)N1CCC(c2ccccc2)=N1)c1ccc(Cl)s1 | · | ? | -4% | ·
CCOC(=O)C1=C(N)OC2=C(C(=O)CC(C)C2)C1c1cccnc1 (configuration not stated) | 1 | ? | -5% | -7%
Cn1cnnc1SCC(=O)c1c(N)n(Cc2ccccc2)c(=O)n(C)c1=O | 5 | -2.0% | 1% | 0%
CCn1c(SCC(=O)N2CCC(C)CC2)nc2c1c(=O)n(C)c(=O)n2C | · | 0.0% | 8% | -2%
O=C(NNC(=O)c1ccccc1O)c1ccc(S(=O)(=O)Nc2ccccc2)cc1 | · | 0.1% | -6% | ·
COc1ccc(OC)c(C(c2nnnn2CCc2ccccc2)N2CCN(c3ccccc3)CC2)c1 (configuration not stated) | -1 | -0.1% | -14% | 10%
CC(C)(C)c1[nH]nc2c1C(c1ccc(OC(=O)c3ccco3)cc1)C(C#N)=C(N)O2 (configuration not stated) | -2 | -3.9% | -5% | 6%
COc1ccc(CNC[C@H]2O[C@@H](n3cnc4c(N)ncnc43)[C@H](O)[C@@H]2O)cc1OC | · | 0.0% | 1% | ·
CCc1ccc(NC(=O)[C@H](C)NC(=O)C2CCN(C(=O)[C@@H](NC(=O)OC(C)(C)C)C(C)C)CC2)cc1 | · | 0.4% | -17% | 2%

Additional results:
SMILES | GLA inh pH 4.5 | Rango-impB inh | Rango release inh | miR-21 reporter
CC(C)OC(=O)Nc1ccc2c(c1)N(C(=O)CCN1CCN(CCO)CC1)c1ccccc1CC2 | 1 | 0.2% | 5% | -11%
COc1ccccc1CNC(=O)COC(=O)c1cnccn1 | 4 | -3.3% | -3% | 2%
CCCCn1c(N)c(N(CCOC)C(=O)c2cnccn2)c(=O)[nH]c1=O | · | 0.8% | -15% | ·
COC(=O)c1cccc(NC(=O)Nc2ccc(Cl)cc2Cl)c1 | -1 | 0.5% | 18% | -10%
COc1cccc(CNC(=O)CCCn2c(=S)[nH]c3cc4c(cc3c2=O)OCO4)c1 | · | 2.6% | 5% | 0%
Nc1nc(NC(=O)c2ccc(F)cc2)ns1 | · | -0.6% | -6% | ·
Cc1ccc(-c2cnc3ccccc3n2)cc1C | · | 1.5% | 8% | -27%
COC(=O)/C(C#N)=C/c1c(N2CCN(c3ccccc3)CC2)nc2c(C)cccn2c1=O | · | 0.1% | -11% | -1%
O=c1[nH]c(CN2CCN(S(=O)(=O)c3ccc(Cl)cc3)CC2)nc2cc(Cl)ccc12 | -4 | ? | -24% | -6%
COC(=O)N/N=C1\CCCc2ccccc21 | -8 | 4.6% | -2% | -6%
Cn1c(C(=O)OCC(=O)NCc2ccco2)cc2sccc21 | -4 | -2.8% | 0% | -1%
COc1ccc(NC(=O)CSc2n[nH]c(C)c2[N+](=O)[O-])cc1 | -20 | 1.4% | 0% | -9%
O=C(CCC(=O)c1ccc(F)cc1)NC1CCCN(Cc2ccccc2F)C1 (configuration not stated) | · | 0.3% | 8% | 1%
Cc1cc(C)n2[nH]c(=O)c(N=Nc3ccc(S(N)(=O)=O)cc3)c2n1 | -12 | 1.0% | 18% | -2%
Cc1ccc(NCc2n[nH]c(=S)n2-c2ccccc2)c(C)c1 | -4 | -0.2% | 1% | -7%
CCOC(=O)C1(Cc2ccccc2C#N)CCCCC1=O (configuration not stated) | · | -0.2% | 27% | ·
COc1ccccc1-c1ccc(SCc2cccc(F)c2)nn1 | -5 | -1.4% | -11% | -42%
Cc1ccc2ccc(C(Nc3ccccn3)c3ccccc3)c(O)c2n1 (configuration not stated) | -1 | -0.2% | 6% | 10%&11%
CCCCn1c(SCC(=O)N2CCCc3ccccc32)nc2c1c(=O)n(C)c(=O)n2C | 4 | 6.1% | 2% | 9%
Cc1ccc(Nc2cc(C(=O)NCCCN3CCOCC3)c3ccccc3n2)cc1C | · | 0.6% | 0% | -13%
Cc1cc(C)n(CCNC(=O)c2cc(COc3ccc4ncccc4c3)on2)n1 | -2 | 0.8% | -16% | 20%
COc1ccccc1N1CCN(C(=O)CSc2nc3ccccc3nc2N2CCCCC2)CC1 | · | 1.5% | -14% | -1%
CCCCn1c(N)c(N(CCC(C)C)C(=O)CSc2nnc(Nc3ccccc3)s2)c(=O)[nH]c1=O | 3 | -2.1% | -9% | -5%
CC1=C(C(=O)OCC2CCCCC2)C(c2ccccc2F)NC(=O)N1 (configuration not stated) | · | -1.0% | 0% | ·
CCn1c(CCNC(=O)c2ccc(C)cc2)n[nH]c1=S | -2 | 0.0% | 9% | -24%
Cc1n[nH]c(C)c1CCC(=O)N/N=C/c1c(C)[nH]c2ccccc12 | -1 | 3.8% | 11% | 2%
O=C1CCc2cc(S(=O)(=O)N3CCCCC3)cc3c2N1CC3 | · | -4.3% | 10% | ·
Cn1cccc1/C=N/n1c(-c2ccc(Cl)cc2)n[nH]c1=S | -6 | 2.2% | -15% | -11%
